# Cruzain noTriton: inhibitors of Trypanosoma cruzi cruzain without detergent; purified cruzain, Z-FR-AMC fluorescence, no detergent; P25779; AID 1476; Potency, µM, for inactives: max response, negative = inhibition, usual class: inhibitors; 200,000 tested, 2.3% active; active = well fitted curve in the direction sought with a large enough effect; inconclusive = small, poorly fitted or top-dose-only effect, or another doubt; inactive = no such curve, though single readings can be large; an effect the other way counts as inactive or inconclusive;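 note: plate controls were enzyme without inhibitor for no effect and buffer without enzyme for full effect; nearly all actives have a fitted effect of over 40% in size; top concentration of the series not given in the record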
# Target sequence (P25779 123-467 limits assumed): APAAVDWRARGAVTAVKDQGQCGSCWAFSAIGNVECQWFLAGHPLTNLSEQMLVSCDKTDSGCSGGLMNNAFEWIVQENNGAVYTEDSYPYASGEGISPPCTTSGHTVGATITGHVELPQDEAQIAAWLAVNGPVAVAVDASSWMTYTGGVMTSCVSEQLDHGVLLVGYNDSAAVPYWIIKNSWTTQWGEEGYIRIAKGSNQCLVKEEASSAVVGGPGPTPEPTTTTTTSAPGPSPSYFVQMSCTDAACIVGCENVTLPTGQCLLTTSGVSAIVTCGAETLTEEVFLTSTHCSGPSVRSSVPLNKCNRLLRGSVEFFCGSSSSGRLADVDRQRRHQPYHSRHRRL
#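 Purified cruzain at 1.5 nM, pre-incubated 15 min with compound at room temperature in 100 mM sodium acetate pH 5.5, 5 mM DTT, 0.00005% Triton X-100. Reaction started with 2 uM Z-FR-AMC; AMC fluorescence increase over 60 s gives rate.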
# Marburg entry inh: blocks Marburg virus binding to or entry into cells | 300,000 tested, 1.8% active | Marburg virus pseudotyped entry inhibition, cell reporter; control for the full effect not named in the record; about a third of the inactives were read at about 46 µM | Potency, µM (series often up to 37.8 µM), inactives show at the highest dose activity change, negative = inhibition, hits mostly inhibitors; active = well fitted inhibition curve with a large enough effect; inconclusive = small, poorly fitted or top-dose-only effect, or effect the other way; inactive = flat fitted curve, though single readings scatter; tested in HEK293 cells; about a fifth of its hits are not listed in these tables; note: % is set by controls: 0 for no effect and ±100 for the full control effect; luciferase read-out
# Cruzain Triton: blocks cruzain activity in presence of Triton detergent | 200,000 tested, 0.43% active | purified cruzain, Z-FR-AMC fluorescence, 0.01% Triton | Potency, µM, for the others: max response, negative = inhibition, usual class: inhibitors | P25779; active = well fitted curve in the direction sought with a large enough effect; inconclusive = small, poorly fitted or top-dose-only effect, or another doubt; inactive = no such curve, though single readings can be large; an effect the other way counts as inactive or inconclusive;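 note: plate controls were neutral wells for no effect and buffer without enzyme for full effect; nearly all actives have a fitted effect of over 40% in size; top concentration of the series not given in the record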
#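 Cruzain (1.5 nM) preincubated 15 min at RT with compound in 100 mM sodium acetate pH 5.5, 5 mM DTT, 0.01% Triton X-100. Reaction started with 2 uM Z-FR-AMC; AMC fluorescence (ex 360/em 450 nm) change over 60 s gave rate.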
# StopGo reporter: FMDV 2A StopGo reporter, luciferase signal | 410,000 tested, 1.2% active | human cells with a luciferase reporter of 2A StopGo recoding; control for the full effect not named in the record | Potency, µM (titrated, usually from 57.9 µM), for inactives: at the top dose signal change, negative = less light; active = well fitted falling curve with a large enough effect; inconclusive = small, poorly fitted or top-dose-only effect; inactive = no such curve, though single readings can be large or run the other way; tested in HEK293T cells; note: % is set by controls: 0 for no effect and ±100 for the full control effect; nearly all actives have a fitted effect of over 45% in size; luciferase light after 4 h
# SARS PLpro yeast: blocks SARS-CoV papain-like protease in a yeast assay; S. cerevisiae expressing SARS-CoV PLpro, growth rescue; control for the full effect not named in the record; Potency, µM (top dose mostly 32.9 µM), without a hit: top-dose activity, positive = growth rescue; 330,000 tested, 0.19% active; AID 485353; note: 0% is about no effect; nearly all actives have a fitted effect of over 55% in size; growth read by luminescence after 48 h
# NS1 function inh: blocks influenza NS1 protein function. S. cerevisiae slowed by influenza A NS1, growth recovery by OD600. Potency, µM (titrated, usually from 46.1 µM), for inactives: at the top dose activity, positive = more growth. 270,000 tested, 0.4% active. AID 2326; note: actives are rising curves; nearly all actives have a fitted effect of over 50% in size
#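 Compounds were scored for reversing the slow growth caused by influenza A NS1 in S. cerevisiae, measured by optical density at 600 nm. Assay medium contained 2% galactose at pH 6.0; NS1-free yeast of the same strain were the positive control.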
# RE007 growth inh: less growth of the S. pombe RE007 Vpr strain. S. pombe RE007 Vpr strain, BacTiter-Glo ATP luminescence, 24 h; control for the full effect not named in the record. 360,000 tested, 0.21% active. Potency, µM (highest dose often 92.2 µM), for the others: top-dose activity change, negative = less growth; active = well fitted falling curve with a large enough effect; inconclusive = small, poorly fitted or top-dose-only effect; inactive = no such curve, though single readings can be large or run the other way;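 note: % is set by controls: 0 for no effect and ±100 for the full control effect; nearly all actives have a fitted effect of over 50% in size; the assay follows cell death caused by Vpr and the record does not say whether a fall means rescue or toxicity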
#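 Fission yeast RE007 carrying one integrated HIV-1 vpr copy, seeded at OD 0.01 in PMG+AL medium with 23 nL pinned compound. Grown 24 h at 30 degrees; viability read by BacTiter-Glo luminescence after 5 min.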
# LASV entry inh: Lassa virus entry inhibition. Lassa virus pseudotype entry inhibition, cell reporter; control for the full effect not named in the record. Potency, µM (titrated, usually from 37.9 µM), for inactives: at the top dose activity change, negative = inhibition, usual class: inhibitors. 300,000 tested, 1.2% active. AID 540256; active means well fitted inhibition curve with a large enough effect; inconclusive means small, poorly fitted or top-dose-only effect, or effect the other way; inactive means flat fitted curve, though single readings scatter; tested in HEK293 cells; note: % is set by controls: 0 for no effect and ±100 for the full control effect; nearly all actives have a fitted effect of over 50% in size; luciferase read-out
# * = called active by the depositor; ? = inconclusive; . = no result given; & = joins results of further samples; [ ] = another dose, or the depositor's remark. Unless noted, calls come from the whole dose curve; as a rule, active means well fitted rising curve with a large enough effect; inconclusive means small, poorly fitted or top-dose-only effect; inactive means no such curve, though single readings can be large or run the other way. Potency is the fitted concentration of half-maximal effect.
SMILES,Cruzain noTriton,Marburg entry inh,Cruzain Triton,StopGo reporter,SARS PLpro yeast,NS1 function inh,RE007 growth inh,LASV entry inh
CC(Oc1ccccc1[N+](=O)[O-])C(=O)N/N=C/c1ccoc1 (configuration not stated),.,10%[46.1 µM],.,-7%,1%,8%,4%,?
Cc1cc(C)n(-c2nc(NC(C)(C)C)nc(NC(C)(C)C)n2)n1,5%,?,4.3%,?,2%,4%,-4%,10%
CCOC(=O)CSc1nc(C)c2ccccc2n1,-4%,-3%,0.9%,38%[activator],13%,-1%,-18%,13%
CCCOc1ccc(-c2nonc2NC(=O)c2oc3ccc(Cl)cc3c2C)cc1OCCC,-1%,18%[46.1 µM],-1.0%,-24%,.,.,.,12%[46.1 µM]
CCOC(=O)CNC(=O)C(NC(=O)C1CCC(C)CC1)C(C)CC (configuration not stated),5%,-22%,3.9%,2%,0%,-2%,34%,4%
COC(=O)c1ccc(CS(=O)(=O)c2ccccc2C)o1,16µM*,10%,2.8%,10%,-2%,1µM*,6%,3%
CC(C)c1ccc(/C=C/C(=O)CCC(=O)O)cc1,.,?,.,-19%,-5%,.,-11%,?
O=C(NCCC1CCCCN1S(=O)(=O)c1ccccc1)C(=O)NCc1ccc(F)cc1 (configuration not stated),.,-17%[46.1 µM],.,0%,4%,.,-3%,-9%
Cn1c(=O)c2c(nc(N3CCOCC3)n2CC(=O)c2ccccc2)n(C)c1=O,3%,1%,-0.6%,.,4%,-4%,.,.
O=c1oc2ccccc2cc1-c1nnc(-c2cccc(Br)c2)o1,-2%,3%,10%,34%[activator],-2%,-11%,8%,25%
Cc1nn(-c2ccccc2)c(Cl)c1/C=N/NC(=O)c1cccc(S(=O)(=O)N2CCCC2)c1,18%,?,-11%,?,-28%,22%,6%,7%
COc1ccc2c(c1)sc1nc(=O)ccn12,.,12%,.,-8%,0%,-6%,0%,18%
COc1ccc(Br)cc1CNC(=O)C1CCN(c2nnc(N3CCCC3=O)s2)CC1,.,10%[46.1 µM],.,-1%,-3%,-17%,-4%,-11%[46.1 µM]
C=CCN(C(=O)COc1ccccc1)c1nnc(-c2ccncc2)s1,-10%,11%,2.1%,30%[activator],1%,-8%,-8%,18%
CCOC(=O)C(=CNc1cc(C)ccc1[N+](=O)[O-])C(=O)OCC,.,.,.,9%,1%,-2%,-4%,.
COc1ccccc1NC(=O)c1cc(Cl)ccc1NC(=O)c1ccco1,3%,1%[46.1 µM],-2.7%,-28%,-2%,9%,-9%,-1%
CC(C)CN(CCCNC(=O)CN1C(=O)CSc2ccc(S(=O)(=O)N3CCOCC3)cc21)CC(C)C,?,.,0.0%,-14%&-9%,1%,.,-1%,11%[46.1 µM]
O=C(O)c1ccccc1NC(=O)C1CCCO1 (configuration not stated),11%,-2%,4.2%,0%,.,6%,-7%,19%
COc1cccc(C2C3CN(C)CC=C3C(C#N)=C(N)C2(C#N)C#N)c1OC (configuration not stated),-2%,-1%,-3.2%,-12%,-2%,4%,1%,-1%
CC1CCCCN1C(=O)c1c(Cl)cnn1C (configuration not stated),.,6%[46.1 µM],.,-5%,-3%,12%,-2%,?
CCC(C)(C)NC(=O)C1CCCN1C(=O)NC1CCCCC1 (configuration not stated),.,-4%[46.1 µM],.,-13%,-1%,.,25%,6%
CCn1nnnc1SCC(=O)Nc1cccc(C)n1,-4%,1%[46.1 µM],-0.6%,-16%,3%,-6%,-2%,3%
CCOc1ccc(CC(=O)Nc2c(C(=O)Nc3ccccc3)oc3ccccc23)cc1OCC,-7%,?,3.7%,5%,-1%,11%,17%,-28%
COc1cc(OC)c(/C=N/NC(=O)c2ccncc2)cc1Br,.,?,.,-12%,-2%,.,4%,1%
CC1(C)Cc2[nH]c(=S)c(C#N)cc2CO1,-10%,?,-5.2%,22%,8%,18%,12%,10%
Cc1ccc(S(=O)(=O)NC(=NC(C)C(=O)O)c2ccccc2)cc1 (configuration not stated),5%,11%,-2.8%,-10%,11%,-2%,11%,-1%
COc1cc2c(cc1Cl)C(=O)C(F)(c1ccccc1)C(=O)N2 (configuration not stated),.,.,.,52%[activator],0%,-3%,20%,.
Cc1oc2cc(O)ccc2c(=O)c1-c1cnn(-c2ccccc2)c1,-16%,?,-1.3%,-24%,-4%,-6%,17%,-9%
Cc1ccc2c(c1C)NC(C)CC2C (configuration not stated),?,21%,3.4%,2%,-1%,3%,-8%,1%
O=C1CC(c2nc3ccccc3[nH]2)CN1Cc1ccccc1 (configuration not stated),5%,7%,-1.7%,-1%,12%,-11%,-2%,.
CCn1c(SCC(=O)c2ccc(O)c(O)c2)nnc1-c1ccc(C)cc1,4%,?,-8.0%,?,-2%,10%,-18%,-17%
N#Cc1c(/N=C/c2ccc(Br)s2)sc2c1CCC2,-16%,?,-8.9%,37%[activator],-20%,5%,-10%,18%
CCOC(=O)C1CCN(C(=O)CN(c2ccc3c(c2)OCCO3)S(C)(=O)=O)CC1,2%,6%,6.1%,8%,11%,-1%,7%,0%
O=C(COC(=O)c1ccc(Cl)c(S(=O)(=O)N2CCOCC2)c1)NCc1ccco1,.,-3%[46.1 µM],.,-12%,2%,.,-13%,6%
COc1ccc(C(=O)c2c(N)c(-c3nc(-c4ccc5c(c4)OCO5)cs3)c3ccccn23)cc1,?,-6%[46.1 µM],-4.0%,20%,.,.,.,2%[46.1 µM]
NS(=O)(=O)c1ccc(CCNC(=O)c2ccc(Br)s2)cc1,.,-1%[46.1 µM],.,-4%,14%,.,3%,?
O=C(CN1C(=O)CSc2ccc(S(=O)(=O)N3CCCCC3)cc21)NCc1ccc(F)cc1Cl,5%,.,6.7%,-10%,.,.,.,.
Cc1ccccc1-c1nnc(CN2CCN(c3ccccn3)CC2)o1,0%,?,0.9%,-23%,.,.,.,13%[46.1 µM]
Cc1ccc2oc(C(=O)Nc3ccc(S(=O)(=O)Nc4ncccn4)cc3)c(C)c2c1,.,4%,.,-12%,0%,-4%,1%,0%
CC1CCCN(C(=O)c2cc3ccccc3cc2O)C1 (configuration not stated),.,.,.,38%[activator],-3%,2%,-3%,.
CC1=C(C(N)=O)C(c2cccc(C)c2)n2nc(-c3cccc(C)c3)nc2N1 (configuration not stated),-1%,11%[46.1 µM],-5.2%,4%,.,.,.,-4%[46.1 µM]
CC(=O)Nc1cccc(C(=O)OCC(=O)Nc2ccc(Cl)cn2)c1,.,1%[46.1 µM],.,16%,1%,.,-3%,28%
Cn1c(=O)c2ccccc2n(CC(=O)NC2CCCCC2)c1=O,.,2%[46.1 µM],.,16%,-14%,4%,1%,-14%[46.1 µM]
Cc1ccc(CCNC(=O)C(C)n2nc(C)c3c(C)n(-c4ccc(C)cc4)nc3c2=O)cc1 (configuration not stated),4%,.,-3.1%,11µM*,.,.,.,?
Clc1ccccc1C(c1nnnn1Cc1ccco1)N1CCN(Cc2ccco2)CC1 (configuration not stated),-2%,?,1.6%,-15%,2%,-3%,-5%,0%
Cc1cc2c(=O)oc(-c3ccccc3Br)nc2s1,.,13%,.,-7%,-3%,-45%,-1%,?
O=[N+]([O-])c1cc(C(F)(F)F)ccc1NC1CCN(Cc2ccccc2)C1 (configuration not stated),.,4%[46.1 µM],.,-8%,-8%,-5%,-6%,-12%[46.1 µM]
CCOc1ccc(NS(=O)(=O)c2ccc3[nH]cc(C(=O)NCCOC)c(=O)c3c2)cc1,-3%&18%,-2%,-3.2%&-5.9%,11%&-5%,3%,10%,3%,-1%
O=C(O/N=C1\CCCc2ccccc21)c1ccc(F)cc1,-7%,?,0.6%,11%,-3%,-3%,4%,-2%
CCc1cccc(NC(=O)Cn2c(=O)ccc3cc(S(=O)(=O)N4CCC(C)CC4)ccc32)c1,10%,.,-1.8%,-17%,.,.,.,?
O=C(CSc1nc2[nH]ncc2c(=O)n1-c1ccccc1Br)NCc1ccco1,?,1%,-2.4%,15%,3%,?,8%,3%
O=C(NC1CCCCC1)c1cc2cc(Br)ccc2o1,.,?,.,6%,-6%,4%,-2%,?
CCn1c(C2CCN(Cc3ccccc3)CC2)n[nH]c1=S,.,7%[46.1 µM],.,-8%,-3%,.,1%,3%
NS(=O)(=O)c1ccc(CNC(=S)NC2CCCCC2)cc1,.,.,.,-19%,0%,0%,8%,.
NC(=O)CC(NC(=O)Cc1ccc(Br)cc1)c1ccc(N2CCC(Cc3ccccc3)CC2)c([N+](=O)[O-])c1 (configuration not stated),.,.,.,?,0%,4%,8%,.
Cc1ccc(CCNC(=O)CCCn2nc(C)c3c(C)n(-c4ccccc4)nc3c2=O)cc1,-16%,.,-2.9%,-22%,.,.,.,24%[46.1 µM]
Cc1ncsc1CCC(=O)N1CCCC(C(=O)c2cccc(Cl)c2)C1 (configuration not stated),.,.,.,-16%,0%,1%,0%,.
CC(C)(C)C(=O)Cn1c(=O)n(-c2ccc(Cl)c(Cl)c2)c(=O)c2c3c(sc21)CCCC3,-1%,2%[46.1 µM],-3.4%,-12%,.,.,.,1%[46.1 µM]
CN(CCOc1ccccc1)C(=O)C1CCC(=O)N(CCCN2CCCC2=O)C1 (configuration not stated),.,.,.,-3%,-3%,-1%,5%,.
COc1ccc(NC(=O)c2cnc(SC)nc2)cc1,.,.,.,47%[activator],10%,-8%,2%,.
CCCn1c(Sc2nnnn2-c2ccccc2)n[nH]c1=O,3%,-12%,8.0%,-25%,1%,1%,0%,-6%
COC(=O)C1C(=O)NCC1c1ccc(C)cc1 (configuration not stated),-1%,-2%,3.3%,10%,8%,1%,-6%,7%
COc1ccccc1/C=C/CN1CCC(CO)(Cc2ccccc2)CC1,.,13%[46.1 µM],.,-23%,1%,2%,8%,?

# Source: PubChem BioAssay (National Center for Advancing Translational Sciences (NCATS))
